Screening results from PubChem BioAssay.
Cruzain inh noDet – inhibitors of Trypanosoma cruzi cruzain without detergent | P25779 | purified cruzain, Z-FR-AMC fluorescence, no detergent | Potency, µM, for inactives: max response, negative = inhibition, most hits filed as inhibitors | actives 2.3% (n = 200,000) | AID 1476; active = well fitted curve in the direction sought with a large enough effect; inconclusive = small, poorly fitted or top-dose-only effect, or another doubt; inactive = no such curve, though single readings can be large; an effect the other way counts as inactive or inconclusive;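 also: plate controls were enzyme without inhibitor for no effect and buffer without enzyme for full effect; nearly all actives have a fitted effect of over 40% in size; top concentration of the series not given in the record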
Target sequence (P25779 123-467 limits assumed): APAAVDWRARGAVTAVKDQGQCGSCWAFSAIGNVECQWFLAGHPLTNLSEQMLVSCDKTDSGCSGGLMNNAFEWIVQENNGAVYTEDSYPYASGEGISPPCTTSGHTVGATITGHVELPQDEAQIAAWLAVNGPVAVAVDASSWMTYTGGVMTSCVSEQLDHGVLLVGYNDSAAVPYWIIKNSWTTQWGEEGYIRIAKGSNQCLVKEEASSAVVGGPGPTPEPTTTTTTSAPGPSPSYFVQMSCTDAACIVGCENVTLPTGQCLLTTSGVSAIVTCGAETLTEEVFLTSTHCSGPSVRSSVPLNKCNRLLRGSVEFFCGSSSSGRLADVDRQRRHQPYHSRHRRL
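Purified cruzain at 1.5 nM, pre-incubated 15 min with compound at room temperature in 100 mM sodium acetate pH 5.5, 5 mM DTT, 0.00005% Triton X-100. Reaction started with 2 uM Z-FR-AMC; AMC fluorescence increase over 60 s gives rate.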
SARS PLpro yeast – blocks SARS-CoV papain-like protease in a yeast assay. Potency, µM (titrated, usually from 32.9 µM), for the others: at the highest dose activity, positive = growth rescue. actives 0.19% (n = 330,000). S. cerevisiae expressing SARS-CoV PLpro, growth rescue; control for the full effect not named in the record. AID 485353; also: 0% is about no effect; nearly all actives have a fitted effect of over 55% in size; growth read by luminescence after 48 h
Cruzain inh Det – blocks cruzain activity in presence of Triton detergent. P25779. purified cruzain, Z-FR-AMC fluorescence, 0.01% Triton. Potency, µM, inactives show max response, negative = inhibition, actives largely listed as inhibitors. actives 0.43% (n = 200,000); active = well fitted curve in the direction sought with a large enough effect; inconclusive = small, poorly fitted or top-dose-only effect, or another doubt; inactive = no such curve, though single readings can be large; an effect the other way counts as inactive or inconclusive;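 also: plate controls were neutral wells for no effect and buffer without enzyme for full effect; nearly all actives have a fitted effect of over 40% in size; top concentration of the series not given in the record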
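Sodium acetate buffer (100 mM, pH 5.5) containing 5 mM DTT and 0.01% Triton X-100 hosted 1.5 nM cruzain and test compound for 15 min at room temperature. Cleavage of 2 uM Z-FR-AMC was then tracked by fluorescence.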
MARV entry inh – blocks Marburg virus binding to or entry into cells | actives 1.8% (n = 300,000) | Potency, µM (highest dose often 37.8 µM), for inactives: at the highest dose activity change, negative = inhibition, usual class: inhibitors | Marburg virus pseudotyped entry inhibition, cell reporter; control for the full effect not named in the record; about a third of the inactives were read at about 46 µM; active = well fitted inhibition curve with a large enough effect; inconclusive = small, poorly fitted or top-dose-only effect, or effect the other way; inactive = flat fitted curve, though single readings scatter; tested in HEK293 cells; about a fifth of its hits are not listed in these tables; also: % is scaled to controls: 0 for no effect and ±100 for the full control effect; luciferase read-out
LASV entry inh – Lassa virus entry inhibition; Potency, µM (highest dose often 37.9 µM), for the others: at the highest dose activity change, negative = inhibition, usual class: inhibitors; AID 540256; Lassa virus pseudotype entry inhibition, cell reporter; control for the full effect not named in the record; actives 1.2% (n = 300,000); active means well fitted inhibition curve with a large enough effect; inconclusive means small, poorly fitted or top-dose-only effect, or effect the other way; inactive means flat fitted curve, though single readings scatter; tested in HEK293 cells; also: % is scaled to controls: 0 for no effect and ±100 for the full control effect; nearly all actives have a fitted effect of over 50% in size; luciferase read-out
RE007 growth inh – less growth of the S. pombe RE007 Vpr strain; S. pombe RE007 Vpr strain, BacTiter-Glo ATP luminescence, 24 h; control for the full effect not named in the record; Potency, µM (highest dose often 92.2 µM), for inactives: at the highest dose activity change, negative = less growth; actives 0.21% (n = 360,000); active = well fitted falling curve with a large enough effect; inconclusive = small, poorly fitted or top-dose-only effect; inactive = no such curve, though single readings can be large or run the other way;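 also: % is scaled to controls: 0 for no effect and ±100 for the full control effect; nearly all actives have a fitted effect of over 50% in size; the assay follows cell death caused by Vpr and the record does not say whether a fall means rescue or toxicity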
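Fission yeast strain RE007, carrying one chromosomally integrated HIV-1 vpr copy, was seeded at OD 0.01 in PMG+AL medium with 23 nL pinned compound. After 24 h at 30 °C and 99% humidity, viability was read by BacTiter-Glo luminescence.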
NS1 inh – blocks influenza NS1 protein function; S. cerevisiae slowed by influenza A NS1, growth recovery by OD600; Potency, µM (doses to about 46.1 µM), without a hit: at the top dose activity, positive = more growth; actives 0.4% (n = 270,000); AID 2326; also: actives are rising curves; nearly all actives have a fitted effect of over 50% in size
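Compounds were scored for reversing the slow growth caused by influenza A NS1 in S. cerevisiae, measured by optical density at 600 nm. Assay medium contained 2% galactose at pH 6.0; NS1-free yeast of the same strain were the positive control.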
2A StopGo – lowers the luciferase signal of an FMDV 2A StopGo reporter | actives 1.2% (n = 410,000) | AID 1159524 | human cells with a luciferase reporter of 2A StopGo recoding; control for the full effect not named in the record | Potency, µM (series often up to 57.9 µM), for inactives: at the top dose signal change, negative = less light; active = well fitted falling curve with a large enough effect; inconclusive = small, poorly fitted or top-dose-only effect; inactive = no such curve, though single readings can be large or run the other way; tested in HEK293T cells; also: % is scaled to controls: 0 for no effect and ±100 for the full control effect; nearly all actives have a fitted effect of over 45% in size; luciferase light after 4 h
The depositor's hits bear a star; ? = inconclusive; / = not tested or not shown; & = joins results of further samples; [ ] = another dose, or the depositor's remark. Unless noted, calls follow the shape of the dose curve; as a rule, active means well fitted rising curve with a large enough effect; inconclusive means small, poorly fitted or top-dose-only effect; inactive means no such curve, though single readings can be large or run the other way. Potency is read from the fitted curve at half-maximal effect.

SMILES	Cruzain inh noDet	SARS PLpro yeast	Cruzain inh Det	MARV entry inh	LASV entry inh	RE007 growth inh	NS1 inh	2A StopGo
O=C(NCCCN1CCC(Cc2ccccc2)CC1)C1CCN(S(=O)(=O)N2CCC3(CC2)OCCO3)CC1	/	1%	/	-1%	5%	13%	/	-18%
O=C(NC1CCCC1)c1cc(S(=O)(=O)N2CCCC2)ccc1Cl	/	-2%	/	-13%	-2%	4%	-4%	-6%
COc1cc(NC(=O)C(C)Oc2ccccc2)cc(OC)c1 (stereo not drawn)	11%	-1%	-0.1%	1%[46.1 µM]	0%	-22%	-10%	-4%
CCc1cc(=O)oc2cc(C)cc(OC(C)C(=O)NCCCN3CCOCC3)c12 (stereo not drawn)	/	6%	/	-15%[46.1 µM]	11%[46.1 µM]	-3%	13%	-11%
O=C(CC(=O)c1ccccn1)c1ccccc1	/	/	/	?	?	?	/	-32%
Cc1ccc(C(=O)Nn2cnnc2)cc1Cl	/	-3%	/	/	/	-28%	13%	13%
COC(=O)c1ccn(C(=O)c2ccc(Cl)cc2)n1	3%	/	2.5%	14%&14%	3%	6%	3%	-9%
Cc1c2cnn(CC(=O)N3CCN(c4ncccn4)CC3)c(=O)c2c(C)n1Cc1ccc(F)cc1	12%	0%	-1.7%	0%	/	/	3%	/
CN1CCN(C2=C(Cl)C(=O)C(c3cnc(N4CCCCC4)s3)=C(Cl)C2=O)CC1	?	-115%	1.4%	1%	-21%	?	7%	?
C[C@@H]1CCC2[C@](C)(CO)[C@@H](O)CC[C@]2(C)[C@@]12C[C@](CO)(CC(=O)O)CO2 (stereo partly drawn)	/	-2%	/	/	/	-8%	-1%	-6%
O=C(NCc1cn2ccccc2n1)C1CCC(=O)N(Cc2ccccc2F)C1 (stereo not drawn)	/	0%	/	/	/	2%	14%	-6%
CC(C(=O)NC1CCCCCC1)N(c1ccccc1)S(C)(=O)=O (stereo not drawn)	1%	12%	5.7%	8.2µM*	-2%	-9%	0%	14%
CC1NC(=O)NC(=O)C1Br (stereo not drawn)	/	/	/	6%	-4%	-4%	/	-9%
CCOC(=O)c1ccc(S(=O)(=O)Nc2cc(S(=O)(=O)Nc3ccc(OC)cc3)ccc2O)cc1	/	-15%	/	-2%	-4%	7%	/	29%
CC(C)C(OC(=O)c1ccco1)C(=O)NC1CCCC1 (stereo not drawn)	/	1%	/	-4%[46.1 µM]	4%[46.1 µM]	1%	-3%	0%
CC(C)=CCC/C(C)=C/COc1ccc2ccc(=O)oc2c1	8%&13%	-1%	1.8%&-11%	/	/	-4%	-4%	0%&-7%
O=C1/C(=C/c2ccco2)Cc2ccccc21	6%	-35%	-13%	?	?	-18%	-18%	66%[activator]
COc1ccc(NC(=O)c2ccco2)cc1NC(=O)c1ccco1	3%	-4%	1.5%	?	-2%	2%	-14%	-15%
O=C(CCCOc1ccccc1)NC(=S)Nc1ccccc1	/	1%	/	5%[46.1 µM]	?	-2%	2%	31%[activator]
COc1ccc(CCNCc2c(OC)ccc3ccccc23)cc1OC	/	0%	/	/	/	-6%	6%	-29%
NS(=O)(=O)c1ccc(CCNC(=O)c2ccc(S(=O)(=O)N3CCCCC3)cc2)cc1	26%	-6%	0.1%	?	-18%	6%	-4%	?
CCOC(=O)C(=CNc1ccc(OC)cc1[N+](=O)[O-])C(=O)OCC	/	0%	/	/	/	1%	2%	8%
CC1(C)CC2(CC(c3ccccc3)Oc3cc(O)ccc32)NC(=S)N1 (stereo not drawn)	-2%	-2%	-6.2%	/	/	7%	9%	-22%
CCOC(=O)C(CC)n1nc(C)c2c(C)n(-c3ccc(C)cc3)nc2c1=O (stereo not drawn)	16%	/	-1.4%	2%[46.1 µM]	9%[46.1 µM]	/	/	-20%
COc1ccc(C(=O)NNC(=O)CSc2nnc(C3CC3)n2C)cc1	/	9%	/	-23%[46.1 µM]	24%	9%	-3%	12%
COc1ccc(-c2[nH]ncc2/C=N\NS(=O)(=O)c2ccccc2)cc1OC	-4%	9%	3.7%	6%	8%	8%	11%	-23%
COc1ccc(CNC(=S)N/N=C/c2ccncc2)cc1	0%	-16%	-7.0%	4%	?	4%	28%	10%
Fc1ccccc1N1CCN(CCCc2ccccc2)CC1	/	29%	/	?	2%[46.1 µM]	3%	1%	-1%
CC(C)N(Cc1ccccc1)C(=O)COC(=O)c1cc(S(=O)(=O)N(C)C)ccc1N1CCCC1	/	-4%	/	?	?	-2%	/	-5%
CC1(C)Cc2c(c(-c3ccccc3)nc(N3CCOCC3)c2C(N)=O)CO1	-1%	-5%	8.3%	16%	9%	14%	8%	?
N#Cc1c(/N=C/c2cccnc2)sc2c1CCCC2	/	-1%	/	16%[46.1 µM]	5%	-9%	-5%	49%[activator]
CC/C(=N/Nc1ccc(Cl)cc1)c1cnnc(SC)n1	?	-1%	-6.7%	3%	18%	-7%	12%	10%
Cc1ccccc1CNC(=O)Cn1ccc2cc(S(=O)(=O)N3CCCCC3)ccc21	-25%	/	-4.0%	/	19%[46.1 µM]	/	/	-18%
OC(Cn1cnnc1)c1ccccc1 (stereo not drawn)	/	-1%	/	-24%[46.1 µM]	5%[46.1 µM]	-9%	0%	0%
COc1ccc(CC(=O)OCC(=O)NC(=O)NC2CCCCC2)cc1	-6%	-11%	-3.1%	-12%[46.1 µM]	-26%	-6%	-52%	-9%
COc1ccc(-n2c3c(cc(C(=O)N4CCN(CCO)CC4)c2=O)C(=O)CC(C)(C)C3)cc1	0%	-3%	7.3%	23%	-4%	-6%	1%	/
C=Cc1ccc(Cn2c(C)c(CNCCc3cc(OC)ccc3OC)c(C(=O)O)c2C)cc1	11%	/	-2.4%	-2%[46.1 µM]	16%[46.1 µM]	/	/	-9%
CC(CCC(=O)NN)C1CCC2C3CCC4CC(O)CCC4(C)C3CCC12C (stereo not drawn)	/	/	/	22%	28%	7%	/	-20%
CCOc1ccccc1CNC(=O)C1CCN(S(=O)(=O)c2ccc3[nH]c(=O)ccc3c2)CC1	2%	/	-1.0%	/	-7%[46.1 µM]	/	/	-4%
O=C(NCCCn1ccnc1)c1ccc(N2CCCCCC2)c([N+](=O)[O-])c1	/	-3%	/	?	?	0%	/	-11%
CCOC(=O)C1CCCN(C(=O)c2sc3nc(C)nc(N4CCOCC4)c3c2C)C1 (stereo not drawn)	10%	2%	0.1%	-1%	0%	-9%	-4%	-1%
Cc1c(NC(=O)Nc2ccc(F)cc2)c(=O)n(-c2ccccc2)n1C	/	1%	/	-5%[46.1 µM]	-17%[46.1 µM]	3%	-4%	-14%
Cc1cccc(NN=C2c3ccccc3-c3ccccc32)c1	-14%	-7%	-4.2%	-1%	18%	16%	2%	0%
CC(=O)c1c(C)oc2ccc(NS(=O)(=O)c3cccs3)cc12	/	0%	/	?	-12%	12%	2%	?
Cc1c(NC(=O)c2ccccc2NC(=O)COc2ccccc2)cccc1C(=O)O	/	19%	/	/	/	8%	-23%	-21%
Cc1ccc(OCC(=O)Nn2cnnc2)c(Br)c1	-16%	18%	-4.8%	17%	0%	4%	8%	/
O=[N+]([O-])/C(C(Cl)=C(Cl)Cl)=C1\Nc2ccccc2O1	/	1%	/	0%	-2%	-11%	0%	26%
O=C(NCc1c(O)ccc2ccccc12)c1ccccc1	/	-3%	/	/	/	4%	-9%	23%
COc1ccc(OC)c(C(=O)COC(=O)CNC(=O)C2CCCCC2)c1	5µM*	2%	4.5µM*	-3%	-5%	2%	-5%	20%
CC(C)(C)S(=O)(=O)c1cnc2c(-c3ccc(F)cc3)cnn2c1N	-3%	2%	-2.4%	23%	15%	0%	8%	32%[activator]
O=C(Cc1ccccc1)NN1C(=O)C2C3C=CC([C@@H]2C1=O)C31CC1 (stereo partly drawn)	-13%	24%	-0.7%	-19%	1%	-21%	10%	-19%
COc1ccc(OC)c(CCNC(=O)c2c(C)nn(-c3ccc(F)cc3)c2-n2cccc2)c1	30%	/	-7.1%	/	?	/	/	?
CCCc1cc(=O)oc2cc(C)c3c(-c4ccccc4)c(C)oc3c12	-6%	/	-3.9%	12%[46.1 µM]	17%[46.1 µM]	/	/	-21%
Cc1cc(C(F)(F)F)nc(-n2cc(-c3ccccc3)nn2)n1	/	-1%	/	1%[46.1 µM]	?	3%	-3%	6%
Cc1ccc(CNC(=O)c2ccc3c(=O)[nH]c4c(C(=O)NCC5CCCO5)sc(=S)n4c3c2)cc1 (stereo not drawn)	/	1%	/	12%	5%	18%	/	24%
CS(=O)(=O)N(CC(=O)N1CCCCCC1)c1ccc(Br)cc1	-8%	0%	2.9%	1%	4%	1%	-4%	-4%
CC(/C=N/NC(=O)CSc1n[nH]c(=O)[nH]c1=O)=C\c1ccccc1	/	1%	/	25%	-23%	1%	2%	11%
Cc1nn(C)c(C)c1CNC(=O)c1cnn2c1NC(c1ccccc1)CC2C(F)(F)F (stereo not drawn)	?	4%	0.5%	1%&0%	-18%	1%	4%	/
CCCCN(CCCC)C(=O)c1sc2nc(N3CCOCC3)c3c(c2c1N)CCCC3	/	0%	/	/	/	8%	5%	-28%
COc1cc(/C=C/C(=O)OCC(=O)NCc2cccs2)ccc1OCC#N	1%	25%	-14%	-1%	24%	0%	?	-2%
CC1=NN(c2ccc(C(=O)O)cc2)C(=O)/C1=C\c1ccc(OC(=O)c2cccs2)cc1	/	6%	/	28%[46.1 µM]	7%	-9%	/	4%
CCCN1CCN(CCCNC(=O)c2ccccc2NC(=O)C2=C(C)OCCS2)CC1	/	3%	/	/	/	3%	-4%	14%
CCCCc1nn2c(=O)cc(COC(=O)c3cccc(OC)c3)nc2s1	-7%	/	4.7%	/	5%[46.1 µM]	/	/	-24%
